# Vaccinia inh – Vaccinia orthopox stage-specific inhibition | activity change (mCherry), % (no concentration beside the values) | AID 1053133 | actives 0.01% (n = 89,000) | Vaccinia-infected cells, mCherry/Venus stage reporter fluorescence; hits give low values; some inactives read as strong as hits;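 active = mCherry past -33% and 40 or more points under the early reporter, replicates agreeing; inconclusive = past -33% without that gap or agreement; tested in A549 cells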;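 note: scaled between vehicle wells and reference inhibitor wells; 23 nL library stock went into each well; one replicate is shown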
# Vaccinia inh Venus – further read-out of Vaccinia inh, marked with its call; activity change (Venus), %; measured here: Venus reporter, other viral stage;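 negative = less Venus signal; first of two replicates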
# Starred values were filed as active, the others as inactive; ? = inconclusive; . = no result given.
SMILES,Vaccinia inh,Vaccinia inh Venus
CO[C@@H]1CN(C)C(=O)c2ccc(NC(C)=O)cc2OC[C@@H](C)N(Cc2cccc(F)c2)C[C@H]1C,12,0
O=C(Cc1ccncc1)N1CCCCN2[C@@H](CO)[C@H](c3ccc(C#Cc4ccccc4F)cc3)[C@@H]2C1,-16,-16
C[C@H](CO)N1C[C@H](C)[C@@H](CN(C)Cc2ccncc2)Oc2cc(-c3ccccc3F)ccc2S1(=O)=O,?,.
COc1ccc(NC(=O)Nc2cccc3c2O[C@H](CN(C)C(=O)NC(C)C)[C@@H](C)CN([C@H](C)CO)C3=O)cc1,11,4
C[C@@H]1CN([C@H](C)CO)C(=O)c2cc(C3=CCCCC3)cnc2O[C@H]1CN(C)C(=O)c1ccccn1,37,24
O=C(C1CC1)N1CC(=O)N2[C@@H](CO)[C@H](c3ccc(C#CCc4ccccc4)cc3)[C@@H]2C1,18,7
C[C@@H]1CN([C@H](C)CO)C(=O)c2cc(-c3cccnc3)cnc2O[C@@H]1CN(C)C(=O)C1CCC1,8,6
C[C@H]1CN([C@@H](C)CO)C(=O)Cc2cc(NC(=O)C3CC3)ccc2O[C@@H]1CN(C)C(=O)Nc1ccc2c(c1)OCO2,8,11
Cc1noc(C)c1NC(=O)N(C)C[C@@H]1Oc2c(NC(=O)c3ccncc3)cccc2C(=O)N([C@@H](C)CO)C[C@H]1C,4,-2
CC(C)NC(=O)Nc1ccc2c(c1)C(=O)N([C@@H](C)CO)C[C@@H](C)[C@@H](CN(C)S(C)(=O)=O)O2,10,6
COc1ccc(NC(=O)N[C@H]2C=C[C@H](CC(=O)NC3CCC3)O[C@@H]2CO)cc1,8,11
COc1ccc(NC(=O)N2CCCCN3[C@@H](CO)[C@H](c4ccc(C#Cc5ccccc5)cc4)[C@@H]3C2)cc1,?,.
Cc1noc(C)c1S(=O)(=O)N(C)C[C@H]1OCCCC[C@@H](C)Oc2ccc(NC(=O)NC3CCCCC3)cc2C(=O)N([C@@H](C)CO)C[C@@H]1C,?,.
CN(C)c1ccc2c(c1)[C@@H]1C[C@@H](CC(=O)NCc3ccccn3)O[C@@H](CO)[C@@H]1O2,1,8
O=C(C1CCC1)N1CC(=O)N2[C@H](CO)[C@H](c3ccc(-c4ccccc4F)cc3)[C@H]2C1,-12,-14
CO[C@H]1CN(C)C(=O)c2cc(NC(C)=O)ccc2OC[C@@H](C)N(C(=O)CN(C)C)C[C@@H]1C,-2,-1
C[C@@H]1CCCCO[C@@H](CN(C)C(=O)NC2CCCCC2)[C@@H](C)CN([C@@H](C)CO)C(=O)c2cc(NC(=O)Nc3cccc4ccccc34)ccc2O1,22,21
C[C@H]1CN([C@@H](C)CO)C(=O)c2cc(C#CCN(C)C)cnc2O[C@H]1CN(C)C(=O)CN1CCOCC1,34,15
C[C@H]1CN([C@@H](C)CO)C(=O)c2cccc(NC(=O)c3ccncc3)c2O[C@@H]1CN(C)Cc1ccc2c(c1)OCO2,4,10
COc1ccc(S(=O)(=O)N(C)C[C@@H]2OCCCC[C@@H](C)Oc3ccc(NS(=O)(=O)c4ccccc4)cc3C(=O)N([C@@H](C)CO)C[C@@H]2C)cc1,9,8

# Arranged by count of non-hydrogen atoms (smallest number first): some entries from above
SMILES,Vaccinia inh,Vaccinia inh Venus
O=C(C1CCC1)N1CC(=O)N2[C@H](CO)[C@H](c3ccc(-c4ccccc4F)cc3)[C@H]2C1,-12,-14
CO[C@H]1CN(C)C(=O)c2cc(NC(C)=O)ccc2OC[C@@H](C)N(C(=O)CN(C)C)C[C@@H]1C,-2,-1
O=C(Cc1ccncc1)N1CCCCN2[C@@H](CO)[C@H](c3ccc(C#Cc4ccccc4F)cc3)[C@@H]2C1,-16,-16

# Next results follow.
SMILES,Vaccinia inh,Vaccinia inh Venus
C[C@@H]1CN([C@@H](C)CO)C(=O)c2cc(N(C)C)ccc2O[C@@H]1CN(C)Cc1ccc(C(F)(F)F)cc1,-17,-10
COc1ccc2c3c([nH]c2c1)[C@H](CO)N(CC1CC1)CC31CN(C(=O)C2CCOCC2)C1,17,12
O=C(C[C@H]1CC[C@@H]2[C@H](COC[C@H](O)CN2C(=O)Nc2cccc(F)c2)O1)NCCCN1CCOCC1,-1,1
C[C@H](CO)N1C[C@H](C)[C@H](CN(C)C(=O)NC2CCCCC2)Oc2ccc(NC(=O)CCN3CCOCC3)cc2CC1=O,8,5
O=C(Nc1cccc(F)c1)N1CC(=O)N2[C@H](CO)[C@@H](c3ccc(C#Cc4cccnc4)cc3)[C@H]2C1,-16,-5
CCCNC(=O)N1CC2(CCN(C(=O)c3cccnc3)CC2)c2c([nH]c3cc(OC)ccc23)[C@H]1CO,7,7
C[C@@H]1CN([C@@H](C)CO)S(=O)(=O)c2ccc(-c3ccc(F)cc3)cc2O[C@@H]1CN(C)Cc1ccccc1C(=O)O,20,14
C[C@@H]1CN([C@H](C)CO)C(=O)c2cc(C#CCN(C)C)cnc2O[C@@H]1CN(C)C(=O)c1cccc(F)c1,13,4
O=S(=O)(N[C@H]1CC[C@@H](CCn2cc(-c3ccccc3F)nn2)O[C@@H]1CO)c1ccc(F)cc1,3,-1
COc1ccc(S(=O)(=O)Nc2ccc3c(c2)C(=O)N([C@@H](C)CO)C[C@@H](C)[C@@H](CN(C)S(=O)(=O)c2cccs2)OCCCC[C@@H](C)O3)cc1,-28,-21
Cc1noc(C)c1NC(=O)Nc1ccc2c(c1)C(=O)N([C@@H](C)CO)C[C@H](C)[C@H](CN(C)S(=O)(=O)c1ccc(F)cc1)OCCCC[C@H](C)O2,13,10
CO[C@H]1CN(C)C(=O)c2ccc(NC(=O)c3ccc(F)cc3)cc2OC[C@H](C)NC[C@H]1C,7,10
COC(=O)[C@@H]1[C@@H](CO)[C@@H]2Cn3c(ccc(-c4ccncc4)c3=O)[C@@H]2N1Cc1cccc(F)c1,13,11
Cc1noc(C)c1NC(=O)N[C@H]1CC[C@H](CCNC(=O)C2CCCCC2)O[C@H]1CO,17,9
CCCN1[C@@H]2c3cccc(=O)n3C[C@H]1[C@H](CO)[C@H]2C(=O)Nc1ccccc1,8,8
CCNC(=O)C[C@@H]1CC[C@H]2[C@H](COc3ccc(NC(=O)c4cccc(OC)c4)cc3C(=O)N2C)O1,7,10
CC(=O)N[C@@H]1C=C[C@@H](CC(=O)NCc2ccc(Cl)cc2)O[C@@H]1CO,9,10
COc1ccc(-c2ccc([C@H]3[C@@H](CO)N(C(=O)CN(C)C)[C@H]3C#N)cc2)cc1,-9,-3
O=C(C[C@@H]1C[C@@H]2c3cc(NC(=O)NC4CCCC4)ccc3O[C@@H]2[C@@H](CO)O1)NCCc1ccccc1,4,1
CC(=O)N1[C@H](CO)[C@H]2c3ccccc3N(S(=O)(=O)c3cccc(C)c3)C[C@H]21,1,-7

# Some of the entries so far, with bars between the fields:
compound | Vaccinia inh | Vaccinia inh Venus
COc1ccc(-c2ccc([C@H]3[C@@H](CO)N(C(=O)CN(C)C)[C@H]3C#N)cc2)cc1 | -9 | -3
CC(C)NC(=O)Nc1ccc2c(c1)C(=O)N([C@@H](C)CO)C[C@@H](C)[C@@H](CN(C)S(C)(=O)=O)O2 | 10 | 6
C[C@H]1CN([C@@H](C)CO)C(=O)c2cc(C#CCN(C)C)cnc2O[C@H]1CN(C)C(=O)CN1CCOCC1 | 34 | 15
CCCNC(=O)N1CC2(CCN(C(=O)c3cccnc3)CC2)c2c([nH]c3cc(OC)ccc23)[C@H]1CO | 7 | 7

# Next compounds follow:
SMILES,Vaccinia inh,Vaccinia inh Venus
C[C@@H]1CN([C@H](C)CO)C(=O)c2cc(NS(C)(=O)=O)ccc2O[C@H]1CN(C)Cc1ccc(C(=O)O)cc1,1,-5
C[C@H]1CCCCO[C@@H](CN(C)C(=O)Nc2cccc3ccccc23)[C@@H](C)CN([C@@H](C)CO)C(=O)c2cc(NC(=O)c3ccncc3)ccc2O1,?,.
CO[C@H]1CN(C)C(=O)c2ccc(NS(C)(=O)=O)cc2OC[C@@H](C)N(Cc2nccs2)C[C@H]1C,4,12
C[C@@H]1CCCCO[C@@H](CN(C)S(=O)(=O)c2ccc(F)cc2)[C@@H](C)CN([C@@H](C)CO)C(=O)c2cc(NC(=O)CCC(F)(F)F)ccc2O1,2,5
CC(C)NC(=O)N(C)C[C@@H]1Oc2ccc(NC(=O)C3CCCCC3)cc2CC(=O)N([C@H](C)CO)C[C@@H]1C,17,11
C[C@@H]1CCCCO[C@@H](CN(C)C)[C@@H](C)CN([C@H](C)CO)C(=O)c2cc(NC(=O)c3ccccc3)ccc2O1,-10,0
CNC(=O)C[C@@H]1CC[C@@H]2[C@H](COc3ccc(NC(=O)c4cc(F)cc(F)c4)cc3C(=O)N2C)O1,5,13
CNC[C@H]1Oc2c(NS(=O)(=O)c3ccccc3)cccc2C(=O)N([C@@H](C)CO)C[C@H]1C,11,4
O=C(C[C@@H]1CC[C@@H](NS(=O)(=O)c2cccc(F)c2)[C@H](CO)O1)N1CCCCC1,11,8
O=C(C[C@@H]1CC[C@H]2[C@@H](COC[C@H](O)CN2C(=O)c2ccccn2)O1)NC1CCC1,3,-9
Cc1noc(C)c1NC(=O)N(C)C[C@H]1Oc2c(NC(=O)c3ccc(-c4nccs4)cc3)cccc2C(=O)N([C@@H](C)CO)C[C@H]1C,21,0
Cc1ccc(S(=O)(=O)N(C)C[C@H]2Oc3cc(C4=CCCC4)ccc3S(=O)(=O)N([C@H](C)CO)C[C@@H]2C)cc1,-29,-15
C[C@@H]1CN([C@H](C)CO)C(=O)c2cc(C#CC3CCCCC3)cnc2O[C@H]1CN(C)Cc1ccncc1,-28,-31
CC=Cc1ccc2n(c1=O)C[C@@H]1[C@@H](CO)[C@H](C(=O)NCCCN(C)C)[C@H]2N1C(=O)c1ccccc1F (mixture of isomers),-3,7
CCC(=O)Nc1ccc2c(c1)OC[C@H](C)N(Cc1cccnc1)C[C@H](C)[C@H](OC)CN(C)C2=O,-8,-5
O=C(N[C@@H]1CC[C@H](CCNC(=O)C2CCCCC2)O[C@@H]1CO)c1ccncc1,2,2
CCCNC(=O)Nc1ccc2c(c1)C(=O)N(C)[C@H]1CC[C@@H](CC(=O)OC)O[C@H]1CO2,3,0
C[C@H](CO)N1C[C@H](C)[C@H](CN(C)C(=O)CCC(F)(F)F)OCc2cnnn2CCCC1=O,9,6
COc1cccc(-c2cn(CC[C@H]3CC[C@@H](NC(=O)CC4CC4)[C@H](CO)O3)nn2)c1,-3,1
CC(C)NC(=O)Nc1ccc2c(c1)C(=O)N([C@@H](C)CO)C[C@@H](C)[C@@H](CN(C)C(=O)CCC(F)(F)F)OCCCC[C@@H](C)O2,10,2
Cc1ccc(S(=O)(=O)N[C@@H]2CC[C@H](CCNC(=O)c3ccc4c(c3)OCO4)O[C@H]2CO)cc1,-12,3
C[C@H]1CN([C@@H](C)CO)C(=O)Cc2cc(NC(=O)Nc3cccc4ccccc34)ccc2O[C@H]1CN(C)S(=O)(=O)c1ccc(Cl)cc1,-9,-2
COCCN(C[C@H]1N[C@H](CO)[C@@H]1c1ccc(-c2cccnc2)cc1)C(C)=O,-3,-1
CC(C)NC(=O)Nc1ccc2c(c1)C(=O)N([C@@H](C)CO)C[C@H](C)[C@@H](CN(C)C(=O)Nc1ccc3c(c1)OCO3)O2,35,13
C[C@@H]1CN([C@@H](C)CO)C(=O)Cc2cc(NS(=O)(=O)c3ccc(F)cc3)ccc2O[C@@H]1CN(C)C(=O)Nc1ccc(F)cc1,4,-2
Cc1ccc(S(=O)(=O)Nc2ccc3c(c2)C(=O)N([C@@H](C)CO)C[C@H](C)[C@H](CN(C)C(=O)C2CCCCC2)OCCCC[C@H](C)O3)cc1,?,.
O=C(NCCc1ccccc1)[C@H]1[C@H](CO)[C@H]2Cn3c(cccc3=O)[C@@H]1N2C(=O)C1CCC1,21,8
O=C(C[C@H]1CC[C@@H](NC(=O)Cc2ccccn2)[C@H](CO)O1)NCCc1ccncc1,0,4
COc1ccc2c3c([nH]c2c1)[C@H](CO)N(C(=O)CN(C)C)CC31CCN(Cc2ccccc2Cl)CC1,?,.
CS(=O)(=O)N1[C@H](C#N)[C@@H](c2ccccc2-c2ccccc2)[C@@H]1CO,-7,-9
O=C(C[C@H]1CC[C@@H]2[C@H](COC[C@H](O)CN2C(=O)c2cccnc2)O1)Nc1ccc(-c2ccccc2)cc1,-4,3
CN1c2ccc(-c3ccc(C#N)cc3)cc2[C@H]2[C@H](CCN2S(=O)(=O)c2cccc(F)c2)[C@@H]1CO,?,.
CC(C)NC(=O)N(C)C[C@@H]1Oc2ncc(-c3ccc(C(=O)N(C)C)cc3)cc2C(=O)N([C@@H](C)CO)C[C@H]1C,25,14
COc1ccc(NC(=O)N(C)C[C@H]2Oc3ncc(C4=CCCC4)cc3C(=O)N([C@@H](C)CO)C[C@H]2C)cc1,-2,-10
C[C@H](CO)N1C[C@H](C)[C@H](CN(C)C(=O)Nc2ccc(F)cc2)Oc2ccc(NC(=O)Nc3ccc(F)cc3)cc2C1=O,3,-1
CC(=O)N(C)C[C@@H]1Oc2ncc(C#Cc3cccc(F)c3)cc2C(=O)N([C@@H](C)CO)C[C@@H]1C,15,10
O=C(C[C@H]1CC[C@@H](NC(=O)c2ccncc2)[C@@H](CO)O1)NCc1ccncn1,13,11
C[C@H](CO)N1C[C@H](C)[C@@H](CN(C)C(=O)Nc2ccc(F)cc2)OCCCC[C@H](C)Oc2ccc(NS(C)(=O)=O)cc2C1=O,13,4
O=C(C[C@H]1C[C@H]2c3cc(NS(=O)(=O)c4ccc(F)cc4)ccc3O[C@H]2[C@H](CO)O1)NCc1cc(F)ccc1F,-16,-8

# Compound profiles, from the list above. Order of values: Vaccinia inh	Vaccinia inh Venus
# Shown for CC=Cc1ccc2n(c1=O)C[C@@H]1[C@@H](CO)[C@H](C(=O)NCCCN(C)C)[C@H]2N1C(=O)c1ccccc1F (mixture of isomers) : -3	7
# Shown for COc1ccc(S(=O)(=O)Nc2ccc3c(c2)C(=O)N([C@@H](C)CO)C[C@@H](C)[C@@H](CN(C)S(=O)(=O)c2cccs2)OCCCC[C@@H](C)O3)cc1 : -28	-21
# Shown for CC(=O)N(C)C[C@@H]1Oc2ncc(C#Cc3cccc(F)c3)cc2C(=O)N([C@@H](C)CO)C[C@@H]1C : 15	10

# High-throughput results as filed in PubChem.

# An excerpt. The share of hits here may be higher or lower than overall.
